Vif TR-FRET = inhibitors of Vif binding to APOBEC3G peptide, primary screen, biochemical, TR-FRET, GST-Vif 1-94, biotin-A3G peptide, dose response retest (AID 1117319); Virion infectivity factor (Human immunodeficiency virus type 1 group M subtype B (isolate …; TR-FRET GST-Vif / biotin-A3G peptide binding; higher % means a stronger effect; test concentration not given here; strong numbers were not always called active; one-dose inhibition, %; IC50 in µM for titrated hits; 260,000 tested, 0.57% active;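 active = above the screen mean plus three standard deviations and confirmed in dose response; inconclusive = results disagree or hit not tested in dose response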;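 note: Vif residues 1-94 fused to GST binding biotinylated APOBEC3G peptide 110-148; 0% = full assay without inhibitor and 100% = GST in place of GST-Vif; retest series ran down from 100 µM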
MLL AF4-AF9 inh = inhibitors of AF4 peptide binding to AF9, primary screen, biochemical, AlphaScreen, biotin-AF4 peptide, FLAG-AF9, single point | Protein AF-9 (Homo sapiens), P42568 | 350,000 tested, 0.47% active | AID 651704, 2012 | inhibition, % at 10 µM;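 active = every replicate reaching a set inhibition limit, whatever the replicate mean, cut at about 25% in these data; inconclusive = mean inhibition reaches that limit but some replicates miss it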;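 note: 0% = plate neutral control median and 100% = total signal loss; the record names both 10 and 1 µM as test concentration; the first replicate is given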
Target sequence (P42568 whole entry, looked up): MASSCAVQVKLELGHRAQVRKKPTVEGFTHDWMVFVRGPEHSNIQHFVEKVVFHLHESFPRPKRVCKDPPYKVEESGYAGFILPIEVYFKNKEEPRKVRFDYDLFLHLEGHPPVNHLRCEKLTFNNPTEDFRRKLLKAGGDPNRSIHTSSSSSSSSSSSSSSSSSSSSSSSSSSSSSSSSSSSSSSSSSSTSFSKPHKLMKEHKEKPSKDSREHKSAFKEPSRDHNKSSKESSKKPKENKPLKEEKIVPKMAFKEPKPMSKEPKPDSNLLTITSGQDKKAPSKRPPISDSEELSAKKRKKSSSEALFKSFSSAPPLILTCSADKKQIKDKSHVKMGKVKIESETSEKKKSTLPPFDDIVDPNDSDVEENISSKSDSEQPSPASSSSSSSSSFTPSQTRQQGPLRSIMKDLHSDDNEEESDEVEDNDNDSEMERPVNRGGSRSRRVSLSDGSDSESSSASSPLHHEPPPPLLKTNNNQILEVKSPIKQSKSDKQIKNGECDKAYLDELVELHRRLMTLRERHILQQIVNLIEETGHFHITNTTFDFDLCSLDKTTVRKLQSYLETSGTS
rRNA inh HTS = reduced GFP signal of wild-type E. coli, primary screen, bacterial rRNA inhibitor project, GFP/RFP fluorescence, OD600, single point; 350,000 tested, 1.6% active; GFP signal change (wild-type ribosome), % (test concentration not listed); E. coli WT GFP vs humanized-ribosome RFP mutants, 24 h; stronger effect = lower value; DMSO median 0, no signal -100; AID 720706, 2013;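 active = significant combined selectivity score with lowered wild-type GFP, culture density cut under 30%, mutant RFP and density less affected; inactive = any of these conditions unmet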; note: one replicate is shown; some compounds called inactive have numbers as strong as hits
rRNA inh HTS OD600 = also measured in rRNA inh HTS; calls as there; OD600 change, %; measured here: OD600 growth;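 optical density of the mix in the first replicate; 0 = DMSO median and -100 = no signal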
rRNA inh HTS RFP = recorded beside rRNA inh HTS, whose call it bears; RFP signal change, %; measured here: RFP humanized mutant strains;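 first replicate; 0 = DMSO median and -100 = no signal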
* hit, by the source's call; ? = inconclusive; & = joins results of further samples.

SMILES	Vif TR-FRET	MLL AF4-AF9 inh	rRNA inh HTS	rRNA inh HTS OD600	rRNA inh HTS RFP
CCOc1ccc(/C=C(/C#N)c2nnc(N3CCOCC3)n2-c2ccccc2)cc1OC	-4%	3.4	-8	-10	2.8
C#CCOCC1CN(c2ccccc2)C(=O)O1 (configuration not stated)	-2%	2.8	21	13	2.5
Cc1ccc(-c2csc(SCC(=O)c3c(N)n(C4CC4)c(=O)[nH]c3=O)n2)cc1	-2%	0.9	9	7	-1.5
O=S(Cc1ccccc1)c1ccccc1 (configuration not stated)	-4%	-0.5	7	6	-0.6
O=C(CN1C(=O)NC2(CCCCC2)C1=O)Nc1cc(C(F)(F)F)ccc1N1CCOCC1	3%	0.0	8	13	0.7
Cc1nnc(NC(=O)C2CCN(S(=O)(=O)c3ccc(F)c(Cl)c3)CC2)o1	7%	-32	1	0	-1.4
Cc1ccc2nc(SCC(=O)c3c(N)n(C4CC4)c(=O)[nH]c3=O)[nH]c2c1	-1%	-3.3	4	8	-2.1
COC(=O)Nc1ccc2ccc3c(NC(=O)OC)ccc4ccc1c2c43	1%	-51	-31	-44	-10
Cc1ccc2nc(SCc3nnc(-c4ccccc4[N+](=O)[O-])o3)c(C#N)cc2c1	-10%	5.9	10	6	-2.6
CC(OC(=O)Nc1cccc(Cl)c1)C(=O)OC1CCCCC1 (configuration not stated)	2%	-2.2	-63	-81	-27
CCCCn1c(SCCN2CCCCC2)nc2c1c(=O)n(C)c(=O)n2C	4%	3.9	14	11	3.0
Cc1ccc(S(=O)(=O)N2CCOCC2)cc1NC(=O)CN1C(=O)CN(C)C1=O	-4%	5.1	3	3	-0.9
Cc1ccc2c(c1)C=CC(C#N)N2C(=O)Oc1ccccc1 (configuration not stated)	0%	1.5	-8	-29	-7.7
CN1OC[C@@H]2CN(Cc3ccccc3)[C@H](c3cccc(-c4ccccc4)c3)C[C@@H]21	4%	1.9	1	-2	1.3
CCCCn1cnc2c(Sc3c([N+](=O)[O-])ncn3C)nc(N)nc21	2%	-4.3	2	4	1.3
Cn1c2ccccc2c2c(=O)oc3ccccc3c21	-5%	1.6	2	0	-0.6
CCCCC(=O)NC(c1ccc(OC)cc1)c1ccc2cccnc2c1O (configuration not stated)	5%	21	-13	-20	-2.9
CC[C@]1(C(=O)OC)[C@H]2C(=O)N(C)C(=O)[C@H]2[C@H]2CN(C)C(=NC)N21	-1%	1.1	11	8	0.1
Cc1cccc(OCC(=O)OCC(=O)NCC2CCCO2)c1C (configuration not stated)	16%	-14	2	4	-2.4
Cn1c(N)c(NC(=S)NC2CCCCC2)c(=O)n(C)c1=O	2%	2.0	17	19	2.6
CCCN(CC(=O)Nc1ccccc1C)C(=O)c1ccc(S(=O)(=O)N2CCC(C)CC2)cc1	3%	-0.4	2	6	-0.6
COc1ccc(-n2ccnc2SCC(=O)c2c(N)n(C3CC3)c(=O)[nH]c2=O)cc1	-5%	-2.5	2	0	-1.3
COc1ccc(S(=O)(=O)Nc2ccc3c(c2)C(=O)N([C@H](C)CO)C[C@H](C)[C@@H](CN(C)S(=O)(=O)c2cn(C)cn2)OCCCC[C@H](C)O3)cc1	-6%	-0.2&-1.9	-4&-1	-9&-3	1.8&2.4
NNc1ccccc1C(F)(F)F	-9%	1.1	24	23	4.9
Cc1csc(NC(=O)C2CCN(S(=O)(=O)c3ccccc3)CC2)n1	1%	-35	0	0	-2.1

Following part:
SMILES	Vif TR-FRET	MLL AF4-AF9 inh	rRNA inh HTS	rRNA inh HTS OD600	rRNA inh HTS RFP
CNc1snc(C)c1C(=O)OC(C)C(=O)NCc1ccccc1 (configuration not stated)	1%	-3.0	-1	-2	-0.3
O=C(Cc1cccc(NC(=O)C2CCN(S(=O)(=O)c3cccc([N+](=O)[O-])c3)CC2)c1)Nc1cccc(C(=O)N2CCCCC2)c1	0%	1.0	-3	-5	-1.3
S=C1NCC(c2ccccc2)S1 (configuration not stated)	-4%	0.5	4	1	1.0
CC(NC(=O)COC(=O)C1CCCCC1)c1ccccc1 (configuration not stated)	2%	2.9	9	6	4.3
CC(=O)N1C[C@H]2CON(C)[C@H]2C[C@H]1c1ccc(-c2ccccc2)cc1	-3%	-1.2	-2	4	-1.5
O=C(O)c1ccc(C(S(=O)(=O)c2ccccc2)S(=O)(=O)c2ccccc2)cc1	-2%	-0.3	3	-3	-5.5
CCOC(=O)/C(=C\c1ccc(N2CCC(c3ccccc3)=N2)cc1)C(C)=O	1%	1.9	16	4	39
Cc1ccc(S(=O)(=O)Nc2cccc(C(=O)N3CCC(C(N)=O)CC3)c2)cc1	-11%	0.4	3	13	-1.3
CCCCN1C[C@H](Cc2ccccc2)[C@@H](CC(=O)Nc2ccc(OC)cc2)C1=O	-5%	0.7	-2	1	-0.8
O=C1OCCN1C(=O)[C@H]1[C@H](c2ccccc2)C(c2cccc(Cl)c2)=NN1c1ccc(Br)cc1	0%	-22	13	17	-2.4
CCOc1ccc(S(=O)(=O)N2CCN(C(=O)c3cc(C4CC4)nn3-c3ccccc3)CC2)cc1	3%	-2.6	-4	-5	3.9
CCOC(=O)C1=CN(Cc2cccc(-c3ccc(F)cc3)c2)S(=O)(=O)N(C)C1C (configuration not stated)	3%	-3.8	0	1	1.9
O=C1C=C(c2c(O)ccc3ccccc23)c2ccccc2C1=O	2.5µM*	22	-34	-39	-5.6
Cc1ccc(NC(=O)CN2C(=O)S/C(=C\c3ccc(-c4cccc(C(=O)O)c4C)o3)C2=O)cc1C	10%	1.2	6	2	-0.3
CCc1cc[n+](C(C(=S)Nc2cccc(C)c2)=C([O-])c2ccc(C)c([N+](=O)[O-])c2)cc1	0%	3.9	-8	5	1.0
CCN(CC)CCNC(=O)C1(c2ccccc2)CCCCC1	-7%	-4.3	13	9	3.7
COc1ccc(NC(=O)CN(c2cc(C)cc(C)c2)S(=O)(=O)c2c(C)n[nH]c2C)cc1	-6%	-6.5	3	4	-3.4
COC(=O)c1cccc(NC(=O)C2CCCN2C(=O)c2cccs2)c1 (configuration not stated)	0%	-5.5	1	3	-1.0
CCN(CC(=O)Nc1ccccc1C(F)(F)F)C(=O)c1ccc(NC(=O)c2cccs2)cc1	8%	-8.0	-1	-15	0.3
CCOC(=O)C1=CN(Cc2cccc(Br)c2)S(=O)(=O)NC1C (configuration not stated)	-2%	-1.3	-26	-48	-12
CC1CCN(N=Nc2nc3c([nH]2)c(=O)n(C)c(=O)n3C)CC1	2%	0.3	-14	7	-1.8
CN(C(=O)COC(=O)c1cc(=O)[nH]c2ccccc12)C1CCCCC1	-11%	-3.8	8	8	-2.4
C[C@H](CO)N1C[C@H](C)[C@@H](CN(C)C(=O)OCc2ccccc2)OCc2cn(nn2)CCCC1=O	-3%	-1.7&4.4	7&1	11&-3	1.9&-0.7
CCCN(CC(=O)Nc1ccccc1C)C(=O)COC(=O)c1cnc(C)cn1	38%	0.6	20	15	-1.8
O=C(NCCCc1ccccc1)c1cccc(NC(=O)c2ccccc2)c1	1%	-0.1	-9	-26	1.0

Some of these compounds in order of molar mass, descending:
SMILES	Vif TR-FRET	MLL AF4-AF9 inh	rRNA inh HTS	rRNA inh HTS OD600	rRNA inh HTS RFP
O=C(NCCCc1ccccc1)c1cccc(NC(=O)c2ccccc2)c1	1%	-0.1	-9	-26	1.0
CC1CCN(N=Nc2nc3c([nH]2)c(=O)n(C)c(=O)n3C)CC1	2%	0.3	-14	7	-1.8
CCN(CC)CCNC(=O)C1(c2ccccc2)CCCCC1	-7%	-4.3	13	9	3.7

2 entries from above, reformatted.
Values run as follows: Vif TR-FRET	MLL AF4-AF9 inh	rRNA inh HTS	rRNA inh HTS OD600	rRNA inh HTS RFP
- S=C1NCC(c2ccccc2)S1 (configuration not stated)
  -4%	0.5	4	1	1.0
- O=C(Cc1cccc(NC(=O)C2CCN(S(=O)(=O)c3cccc([N+](=O)[O-])c3)CC2)c1)Nc1cccc(C(=O)N2CCCCC2)c1
  0%	1.0	-3	-5	-1.3

Next entries.
SMILES	Vif TR-FRET	MLL AF4-AF9 inh	rRNA inh HTS	rRNA inh HTS OD600	rRNA inh HTS RFP
COc1ccccc1OCC(=O)N1CCN(S(=O)(=O)c2ccc(Cl)cc2)CC1	-9%	0.0	3	3	-1.3
O/N=C(\Cn1ccnc1)c1ccccc1	1%	0.9	-2	11	-4.4
CCN(CC)CCCNc1ccc2ncn3c4ccc(O)cc4c(=O)c1c23	15%	24	22	-9	1.1
CC(C)Nc1nc(NC2CCCC2)nc(N2CCOCC2)n1	0%	-13	7	3	-0.6
Cc1ccc(OCC(=O)Nc2ccncc2)cc1C	-2%	-3.8	10	13	-0.2
COCCCN1C(=O)C(CC(=O)NC2CCCC2)CC(C(=O)N2CCOCC2)=C1C (configuration not stated)	4%	-3.6	-9	-9	-3.0
S=c1[nH]ccc2ccccc12	-92%	-3.3	13	9	1.7
CSCCC(NC(=O)c1ccccc1)C(=O)N1CCN(Cc2ccc(Cl)cc2)CC1 (configuration not stated)	-7%	?	-2	-3	0.6
COc1cccc(/C=C/C(=O)OCC(=O)Nc2ccc3c(c2)OCO3)c1	3%	-0.3	-6	-3	0.9
CCOC(=O)C1CCN(C(=O)COC(=O)c2oc3ccc(OC)cc3c2C)CC1	-9%	-2.4	-8	-21	2.2
CCc1c(N)nc(N)nc1Nc1ccccc1C	-3%	6.4	-8	-7	-1.2
CC[C@]12c3[nH]c4cc(CCC(=O)N(C)C)ccc4c3CCN1C(=O)[C@@H](CC(=O)NC/C=C(\C)CCC=C(C)C)C[C@@H]2C(=O)N1CCN(C(=O)C2CC2)CC1	1%	4.0	-35	-47	-2.2
COc1ccc(NC2CCCN(C(=O)COc3ccc(C(C)=O)cc3)C2)cc1 (configuration not stated)	9%	-4.9	1	7	-3.2
C[C@H](O)[C@@H]1CN2CCc3c([nH]c4ccccc34)[C@@H]2C[C@@H]1N(C)C(=O)NC1CCCCC1	2%	2.2	7	7	-0.6
CC(Sc1nccn1C)C(=O)NC1(C#N)CCCCC1 (configuration not stated)	-1%	11	-6	-3	2.4
Cc1ccc(NC(=O)COC(=O)c2ccccc2F)cc1S(=O)(=O)N1CCCCC1	-2%	0.7	-5	-12	1.3
OC(COc1ccccc1)CN1CCN(c2cccc(Cl)c2)CC1 (configuration not stated)	-1%	-0.4	-26	-39	-7.4
CCCN(Cc1nnc(-c2cccs2)o1)C(=O)CN1C(=O)NC2(CCCCC2)C1=O	0%	-1.0	4	-1	-3.2
CCN1C(=O)[C@H]2[C@H]3CN=C(SCc4ccc(C)cc4)N3[C@@](C)(C(=O)OC)[C@H]2C1=O	-1%	0.0	25	18	-1.1
CN1CCC(OC(c2ccccc2)c2ccc(Cl)cc2)C1 (configuration not stated)	-5%	-0.1	-11	-25	3.0
Cc1c(NC(=O)c2cccc(NC(=O)COc3ccccc3C#N)c2)c(=O)n(-c2ccccc2)n1C	16%	0.2	4	4	-1.8
CCOC(=O)c1cc(Cl)c2c(ccc3ccccc32)n1	7%	1.3	1	-32	-5.1
COCC(=O)N[C@@H]1c2ccccc2CC[C@@H]1OCc1ccccc1	1%	-0.9	0	-8	2.6
O=[N+]([O-])c1ccc(N2CCOCC2)cc1	-5%	-3.0	-10	2	-0.5
O=C(O)CN1C(=O)C2C3CCC(C3)C2C1=O (configuration not stated)	4%	-3.5	-3	14	-0.4

Further entries follow:
SMILES	Vif TR-FRET	MLL AF4-AF9 inh	rRNA inh HTS	rRNA inh HTS OD600	rRNA inh HTS RFP
C[C@H](CO)N1C[C@H](C)[C@H](CN(C)S(=O)(=O)c2cccc(F)c2)OCc2ccccc2-c2c(n(C)c3ccccc23)C1=O	-1%	-0.4&3.7	-3&-6	0&7	-1.8&-2.2
COc1cc(C=NNC(=S)Nc2ccc(S(=O)(=O)N3CCCCC3)cc2)cc(OC)c1OC	1%	6.6	-11	-9	1.2
CN(C)c1nc(N)c2nccnc2n1	2%	2.6	11	11	8.7
O=P(OCC1CCCO1)(OCC1CCCO1)OCC1CCCO1 (configuration not stated)	-6%	-2.7	6	19	-5.1
O=C(O)C(Oc1ccc(Cl)cc1)c1ccc(Cl)cc1 (configuration not stated)	-6%	3.4	-11	-24	-1.4
O=C(NCCC(=O)N(Cc1ccco1)Cc1cccs1)c1ccc([N+](=O)[O-])cc1	5%	9.2	1	10	-0.4
Cc1c(C(=O)NCc2ccco2)oc2ccc(Br)cc12	7%	-14	-4	-5	-2.0

Laid out differently: results already given.
SMILES,Vif TR-FRET,MLL AF4-AF9 inh,rRNA inh HTS,rRNA inh HTS OD600,rRNA inh HTS RFP
C[C@H](CO)N1C[C@H](C)[C@H](CN(C)S(=O)(=O)c2cccc(F)c2)OCc2ccccc2-c2c(n(C)c3ccccc23)C1=O,-1%,-0.4&3.7,-3&-6,0&7,-1.8&-2.2
COc1cc(C=NNC(=S)Nc2ccc(S(=O)(=O)N3CCCCC3)cc2)cc(OC)c1OC,1%,6.6,-11,-9,1.2
CN(C)c1nc(N)c2nccnc2n1,2%,2.6,11,11,8.7

Source: PubChem (several laboratories)

Not all compounds are listed. The share of hits here may be higher or lower than overall.
